AF4-AF9 inh = inhibitors of AF4 peptide binding to AF9, primary screen, biochemical, AlphaScreen, biotin-AF4 peptide, FLAG-AF9, single point. Protein AF-9 (Homo sapiens), P42568. inhibition, % at 10 µM. actives 0.47% (n = 350,000). AID 651704, 2012;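 active = every replicate reaching a set inhibition limit, whatever the replicate mean, cut at about 25% in these data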;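 also: 0% = plate neutral control median and 100% = total signal loss; the record names both 10 and 1 µM as test concentration; the first replicate is given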
Target sequence (P42568 whole entry, looked up): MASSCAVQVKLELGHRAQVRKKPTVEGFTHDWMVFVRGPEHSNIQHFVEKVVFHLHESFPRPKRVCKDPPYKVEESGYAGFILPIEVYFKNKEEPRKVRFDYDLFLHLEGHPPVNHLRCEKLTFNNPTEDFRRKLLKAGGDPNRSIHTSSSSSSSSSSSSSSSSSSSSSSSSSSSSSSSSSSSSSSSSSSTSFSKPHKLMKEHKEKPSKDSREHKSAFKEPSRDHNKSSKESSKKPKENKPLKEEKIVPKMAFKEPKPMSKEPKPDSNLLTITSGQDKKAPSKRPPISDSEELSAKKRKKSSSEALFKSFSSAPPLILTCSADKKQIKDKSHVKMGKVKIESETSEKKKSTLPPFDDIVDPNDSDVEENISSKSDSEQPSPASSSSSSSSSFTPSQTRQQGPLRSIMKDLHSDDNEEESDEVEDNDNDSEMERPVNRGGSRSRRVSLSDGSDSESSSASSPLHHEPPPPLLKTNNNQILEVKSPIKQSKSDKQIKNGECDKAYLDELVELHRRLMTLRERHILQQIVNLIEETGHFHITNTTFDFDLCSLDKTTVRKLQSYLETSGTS
rRNA inh HTS = reduced GFP signal of wild-type E. coli, primary screen, bacterial rRNA inhibitor project, GFP/RFP fluorescence, OD600, single point. GFP signal change (wild-type ribosome), % (test concentration not listed). AID 720706, 2013. actives 1.6% (n = 350,000). E. coli WT GFP vs humanized-ribosome RFP mutants, 24 h; hits give low values; DMSO median 0, no signal -100;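 active = significant combined selectivity score with lowered wild-type GFP, culture density cut under 30%, mutant RFP and density less affected; inactive = any of these conditions unmet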; also: one replicate is shown; some compounds called inactive have numbers as strong as hits
rRNA inh HTS OD600 = also measured in rRNA inh HTS; calls as there; OD600 change, %; measured here: OD600 growth;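 optical density of the mix in the first replicate; 0 = DMSO median and -100 = no signal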
rRNA inh HTS RFP = further read-out of rRNA inh HTS, marked with its call; RFP signal change, %; measured here: RFP humanized mutant strains;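 first replicate; 0 = DMSO median and -100 = no signal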
* marks the source's active call; other numbers are inactive results; & = joins results of further samples. A portion of the library (hit frequency here may not be typical).

compound	AF4-AF9 inh	rRNA inh HTS	rRNA inh HTS OD600	rRNA inh HTS RFP
COc1ccc2c3c(n(C)c2c1)[C@@H](CO)N(C(=O)CC1CC1)CC31CN(Cc2ccncc2)C1	12	-1	0	-1.1
Cc1noc(C)c1NC(=O)N(C)C[C@@H]1OCCCC[C@@H](C)Oc2ccc(NC(=O)Cc3ccccc3)cc2C(=O)N([C@H](C)CO)C[C@@H]1C	-3.6	4	12	-2.6
C[C@H]1CN([C@@H](C)CO)C(=O)Cc2cc(NS(=O)(=O)c3cccs3)ccc2O[C@H]1CN(C)S(=O)(=O)c1ccc(F)cc1	-5.2	-2	-23	0.4
COc1ccccc1C(=O)NC(=S)Nc1ccc(N2CCOCC2)cc1	-16	1	4	-1.0
O=C(Nc1ccc2c(c1)[C@H]1C[C@@H](CC(=O)N3CCCCC3)O[C@@H](CO)[C@H]1O2)c1ccc2c(c1)OCO2	-0.8	-2	-4	-0.8
CC(=O)Oc1ccc(Cn2c(C)c(C(=O)NCc3ccccc3C(F)(F)F)sc2=O)cc1	11	8	2	-6.3
COc1ccccc1NC(=O)N(C)C[C@H]1OCc2ccccc2-c2ccccc2C(=O)N([C@H](C)CO)C[C@H]1C	-15	3	9	-3.5
C[C@@H]1CN([C@@H](C)CO)C(=O)c2cc(NC(=O)C3CC3)ccc2O[C@@H]1CN(C)C(=O)Nc1cccc2ccccc12	-1.5	0	4	-0.4

2 entries from above, set out differently:
SMILES: COc1ccccc1NC(=O)N(C)C[C@H]1OCc2ccccc2-c2ccccc2C(=O)N([C@H](C)CO)C[C@H]1C
- AF4-AF9 inh: -15
- rRNA inh HTS: 3
- rRNA inh HTS OD600: 9
- rRNA inh HTS RFP: -3.5

SMILES: COc1ccccc1C(=O)NC(=S)Nc1ccc(N2CCOCC2)cc1
- AF4-AF9 inh: -16
- rRNA inh HTS: 1
- rRNA inh HTS OD600: 4
- rRNA inh HTS RFP: -1.0

More structures:
compound	AF4-AF9 inh	rRNA inh HTS	rRNA inh HTS OD600	rRNA inh HTS RFP
C[C@@H](NC(=O)C[C@H]1C[C@@H]2c3cc(NC(=O)CN(C)C)ccc3O[C@@H]2[C@@H](CO)O1)c1ccccc1	-1.3	2	3	2.8
COc1ccc(NC(=O)Nc2ccc3c(c2)C(=O)N([C@@H](C)CO)C[C@@H](C)[C@@H](CN(C)S(=O)(=O)c2ccc(F)cc2)OCCCC[C@H](C)O3)cc1	-3.6	2	1	-1.4
O=C(Nc1ccc2c(c1)[C@H]1C[C@H](CC(=O)N3CCc4ccccc4C3)O[C@H](CO)[C@H]1O2)Nc1ccccc1F	0.4	-6	-22	-1.1
CC(=O)N1[C@@H]2Cn3c(ccc(C4=CCCC4)c3=O)[C@H]1[C@@H](C(=O)N[C@@H](C)c1ccccc1)[C@@H]2CO	-1.3	-1	-5	0.9
CCNC(=O)C1(C)CCCN(Cc2ccc(-c3ccccc3)o2)C1 (configuration not stated)	0.1	-1	-6	-4.1
O=C(C[C@H]1CC[C@@H](NS(=O)(=O)c2ccc(F)cc2)[C@@H](CO)O1)NCc1ccncn1	-1.2	1	1	-2.4
C[C@@H]1CN([C@H](C)CO)C(=O)Cc2cc(NS(=O)(=O)c3cn(C)cn3)ccc2O[C@H]1CN(C)CC1CC1	-2.3	-2	-2	-1.1
CO[C@@H]1CN(C)C(=O)c2ccc(NC(=O)Cc3ccccc3)cc2OC[C@@H](C)N(CCc2ccccc2)C[C@H]1C	3.4	-2&-5	-9&-12	4.8&5.8
CC(CCC(=O)O)C1CCC2C3CCC4CC(O)CCC4(C)C3CC(O)C12C (configuration not stated)	-2.1	-30	-69	22
C[C@H](NC(=O)C[C@H]1CC[C@H](NC(=O)C2CCC2)[C@H](CO)O1)c1ccccc1	0.0	3	5	-0.7
CC(O)(c1ccc(F)c(F)c1)c1nc(/C=C/c2ccc(C(F)(F)F)cc2)cs1 (configuration not stated)	1.4	2	-14	-2.9
C/C=C/c1cnc2c(c1)C(=O)N([C@@H](C)CO)C[C@@H](C)[C@H](CN(C)C(=O)NCCC)O2	0.4	3	12	-3.7
O=C(NC[C@H]1N[C@H](CO)[C@H]1c1ccc(-c2ccccc2F)cc1)c1ccccn1	2.4	-6	-11	12
COCCN1C(=O)CCC1(C)c1nnnn1-c1ccc2ccccc2c1 (configuration not stated)	-2.3	13	10	3.7
COc1cccc(NC(=O)N2C[C@@H](O)COC[C@@H]3O[C@@H](CC(=O)NC4CCCC4)CC[C@H]32)c1	-2.5	3	2	-2.6
C[C@H](CO)N1C[C@H](C)[C@H](CN(C)S(=O)(=O)c2ccc(F)cc2)OCCCC[C@H](C)Oc2ccc(NC(=O)Nc3ccc(C(F)(F)F)cc3)cc2C1=O	-6.2	-1	-4	-4.0
C[C@@H]1CN([C@H](C)CO)C(=O)c2cc(NS(=O)(=O)c3ccc(F)cc3)ccc2O[C@@H]1CN(C)C(=O)Nc1ccc(F)cc1	-4.3	-1	-1	-0.6
C[C@@H]1CN([C@@H](C)CO)C(=O)c2cc(NS(=O)(=O)c3ccccc3)ccc2O[C@@H]1CN(C)Cc1ccc(Oc2ccccc2)cc1	5.5	-1	-19	22
C[C@@H]1CN([C@@H](C)CO)C(=O)c2cc(C#Cc3cccc(F)c3)cnc2O[C@H]1CN(C)Cc1ccccn1	-7.2	5	8	-0.9
C[C@@H]1CN([C@@H](C)CO)C(=O)c2cc(-c3ccc(F)cc3)cnc2O[C@H]1CN(C)C(=O)CN(C)C	2.6	11	25	-3.4
CCC(=O)N(C)C[C@@H]1Oc2cc(-c3ccc(OC)cc3)ccc2S(=O)(=O)N([C@H](C)CO)C[C@@H]1C	0.7	-10	0	4.1
C[C@@H]1CN([C@H](C)CO)C(=O)c2cccc(NS(=O)(=O)c3ccc(Cl)cc3)c2O[C@@H]1CN(C)C(=O)NC1CCCCC1	3.5	-2	-12	-0.8
COc1ccc(-c2ccc([C@@H]3[C@@H](CO)N4CCCCN(CC5CCOCC5)C[C@H]34)cc2)cc1	4.1	3	-8	2.1
Cc1ccc(S(=O)(=O)N2C[C@@]3(O)Cn4c(=O)ccc(=O)n4C[C@@]3(OC(=O)NCc3ccccc3F)C2)cc1	-0.3	14	22	5.3

4 entries already listed, ordered by the value under AF4-AF9 inh, descending.
compound	AF4-AF9 inh	rRNA inh HTS	rRNA inh HTS OD600	rRNA inh HTS RFP
C[C@@H]1CN([C@H](C)CO)C(=O)c2cccc(NS(=O)(=O)c3ccc(Cl)cc3)c2O[C@@H]1CN(C)C(=O)NC1CCCCC1	3.5	-2	-12	-0.8
C[C@@H]1CN([C@@H](C)CO)C(=O)c2cc(-c3ccc(F)cc3)cnc2O[C@H]1CN(C)C(=O)CN(C)C	2.6	11	25	-3.4
CCC(=O)N(C)C[C@@H]1Oc2cc(-c3ccc(OC)cc3)ccc2S(=O)(=O)N([C@H](C)CO)C[C@@H]1C	0.7	-10	0	4.1
C[C@@H]1CN([C@@H](C)CO)C(=O)c2cc(C#Cc3cccc(F)c3)cnc2O[C@H]1CN(C)Cc1ccccn1	-7.2	5	8	-0.9

The list goes on:
compound	AF4-AF9 inh	rRNA inh HTS	rRNA inh HTS OD600	rRNA inh HTS RFP
CCOC(=O)C1=CC[C@@H](c2ccccc2)N(S(=O)(=O)c2ccc(C)cc2)[C@H]1c1cccc(OC)c1	0.0	36	17	5.1
C[C@@H]1CN([C@H](C)CO)S(=O)(=O)c2ccc(C#C[C@@H](C)O)cc2O[C@H]1CN(C)C(=O)C1CC1	-2.9	1	7	-3.7
O=C(NCC(F)(F)F)[C@H]1[C@H](CO)[C@H]2Cn3c(cccc3=O)[C@H]2N1C(=O)C1CCCC1	-22	3	2	-0.2
C[C@@H]1CCCCO[C@@H](CN(C)Cc2ccncc2)[C@@H](C)CN([C@H](C)CO)C(=O)c2cc(NC(=O)NC3CCCCC3)ccc2O1	-2.7	4	3	-3.0
C[C@H](CO)N1C[C@H](C)[C@@H](CN(C)Cc2ccc3c(c2)OCO3)Oc2c(NC(=O)c3cnccn3)cccc2C1=O	-0.6	-1	3	-0.1
Cc1noc(C)c1S(=O)(=O)N(C)C[C@@H]1Oc2ccc(NS(C)(=O)=O)cc2C(=O)N([C@@H](C)CO)C[C@@H]1C	-1.7	4	4	-0.4
CN(C)C(=O)C[C@H]1CC[C@H]2[C@@H](COC[C@@H](O)CN2CC2CCOCC2)O1	-4.8	2	5	2.3
Cc1ccc(-c2ccc3c(c2)O[C@H](CN(C)C(=O)Nc2ccc(F)cc2)[C@@H](C)CN([C@H](C)CO)S3(=O)=O)cc1	2.6	-6	-10	3.5
C[C@@H]1CN([C@@H](C)CO)C(=O)Cc2cc(NS(=O)(=O)c3ccccc3)ccc2O[C@@H]1CN(C)Cc1ccncc1	-2.4	4	3	-1.5
COc1ccc2c3c([nH]c2c1)[C@@H](CO)N(C(=O)C1CC1)CC31CCN(S(C)(=O)=O)CC1	-17	0	-3	-1.8
C[C@@H]1CN([C@@H](C)CO)C(=O)c2cccc(NC(=O)Nc3ccc(F)cc3)c2O[C@@H]1CN(C)Cc1ccc(Cl)c(Cl)c1	4.1	-1	-21	3.1
C[C@@H]1CN([C@@H](C)CO)C(=O)c2cc(NC(=O)Nc3ccc4c(c3)OCO4)ccc2O[C@@H](C)CCCCO[C@@H]1CN(C)C	7.2	5	6	-1.4
COC(=O)c1cc2c(c3c4cc(C)ccc4n(S(=O)(=O)c4ccccc4)c13)C(=O)N(Cc1ccc(C(F)(F)F)cc1)C2	-6.8	15	17	1.7
Cc1ccc(S(=O)(=O)N(C)C[C@H]2OCCCC[C@H](C)Oc3ccc(NS(=O)(=O)c4c(C)noc4C)cc3C(=O)N([C@H](C)CO)C[C@@H]2C)cc1	0.9	-4	-2	-1.3
Cc1noc(C)c1S(=O)(=O)N(C)C[C@@H]1OCCCC[C@@H](C)Oc2ccc(NC(=O)NC(C)C)cc2C(=O)N([C@@H](C)CO)C[C@@H]1C	-1.9	6	12	-0.7
O=C(c1ccco1)N1CCN(C2CN(C3CCCCC3)S(=O)(=O)C2)CC1 (configuration not stated)	-2.2	14	14	-1.9
CCN(CC(=O)Nc1ccccc1OC)C(=O)CN1C(=O)NC(C)(c2ccc3ccccc3c2)C1=O (configuration not stated)	-1.2	-7	-11	2.6
O=C(C[C@H]1C[C@H]2c3cc(NC(=O)C4CCC4)ccc3O[C@H]2[C@H](CO)O1)NCc1ccccn1	-0.6	3	12	0.7
COc1ccc2c3c([nH]c2c1)[C@@H](CO)N(C(=O)C1CCOCC1)CC31CN(S(C)(=O)=O)C1	-5.4	2	5	-1.5
Cc1noc(C)c1NC(=O)N(C)C[C@@H]1Oc2ncc(C#Cc3ccccc3)cc2C(=O)N([C@H](C)CO)C[C@@H]1C	2.8	-2	-1	-1.0
O=C(NC1CCCC1)[C@H]1[C@H](CO)[C@H]2Cn3c(ccc(-c4cccnc4)c3=O)[C@@H]1N2CC1CC1	-2.1	1	-3	-2.4
CCOC(=O)N(C)C[C@@H]1OCc2ccccc2-c2ccccc2C(=O)N([C@@H](C)CO)C[C@@H]1C	-4.4	-1	13	-2.3
C[C@@H]1CN([C@@H](C)CO)C(=O)c2cc(-c3ccncc3)cnc2O[C@H]1CN(C)Cc1ccc(Oc2ccccc2)cc1	9.0	-2	-14	21
O=C(C[C@@H]1C[C@@H]2c3cc(NC(=O)NC4CCCC4)ccc3O[C@@H]2[C@@H](CO)O1)NCc1ccc(-c2ccccc2)cc1	0.6	-5	-3	3.9
CCc1c(-c2ccccc2OC)ncn1CCc1ccccc1OC	4.0	-48	-68	-9.5
CCCc1cn(CC[C@@H]2CC[C@@H](NS(=O)(=O)c3ccc(-c4ccccc4)cc3)[C@H](CO)O2)nn1	-1.1	-10	-38	9.6
CO[C@H]1CN(C)C(=O)c2cc(NC(=O)Nc3ccccc3Cl)ccc2OC[C@@H](C)NC[C@H]1C	0.2	0	-3	1.5
Cc1noc(C)c1NC(=O)Nc1ccc2c(c1)CC(=O)N([C@@H](C)CO)C[C@@H](C)[C@H](CN(C)S(=O)(=O)c1ccc(F)cc1)O2	1.3	1	0	-0.4
CO[C@@H]1CN(C)C(=O)c2cc(NS(=O)(=O)c3cccc(Cl)c3)ccc2OC[C@H](C)NC[C@@H]1C	-8.1	-3	-4	-0.6
CO[C@@H]1CN(C)C(=O)c2cc(NC(=O)Nc3c(C)noc3C)ccc2OC[C@H](C)N(CCC(F)(F)F)C[C@H]1C	1.7	1	-3	0.4
COc1cccc(-c2cc(NC=O)c3ncc(-c4ccc(F)c(Cl)c4)n3c2)c1	0.9	-2	-11	8.3
CN1CCCCN2[C@H](CO)[C@H](c3ccc(-c4cccnc4)cc3)[C@H]2C1	-1.0	1	16	0.0

Screening results: PubChem, Broad Institute
